High-throughput results deposited in PubChem by Broad Institute.
DUX4 inh – DUX4-mediated transcription inhibition; AID 1224904; activity change, negative = inhibition, % (no concentration beside the values); 37,000 tested, 0.8% active; 293T-iDUX4 ZSCAN4-Gaussia luciferase reporter, 24 h; active compounds read low;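 active means -10% or lower and over 25 points stronger than a control reporter; inconclusive means -10% or lower with a smaller gap; inactive means above -10%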;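 further: 0% = median of neutral control wells and -100% = median of positive control wells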
DUX4 inh difference – recorded beside DUX4 inh, whose call it bears; Gaussia minus Italica difference, %; measured here: selective DUX4 reporter inhibition;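 worked out from the two reporters; negative = selective loss of the DUX4 reporter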
DUX4 inh control – second read-out of DUX4 inh, no call of its own (marks repeat the call); activity change, negative = inhibition, %; measured here: Italica tet-on control reporter;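 0 = neutral control and -100 = positive control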
An asterisk follows results filed as active; u = inconclusive; x = no result given. These rows are one share of the data; rates above refer to the full screens.

Start of the listing, in advance (6 entries):
SMILES	DUX4 inh	DUX4 inh difference	DUX4 inh control
Cc1ccccc1-c1ccc([C@@H]2[C@@H](CO)N3C(=O)CN(S(C)(=O)=O)C[C@@H]23)cc1	7.0	2.9	4.0
CCCNC(=O)N1[C@H](CO)[C@H](c2ccccc2)[C@H]1CNC(=O)C1CC1	-0.4	-0.9	0.5
O=C(C[C@H]1C[C@@H]2c3cc(NC(=O)c4ccc5c(c4)OCO5)ccc3O[C@@H]2[C@H](CO)O1)NCCN1CCCCC1	1.7	-1.9	3.6
COc1ccc2c3c(n(C)c2c1)[C@H](CO)N(C(C)=O)CC31CN(C(=O)NC(C)C)C1	13.0	4.3	8.7
CCN1[C@@H]2c3ccc(-c4ccccc4F)c(=O)n3C[C@H]1[C@H](CO)[C@H]2C(=O)NCc1ccc(F)cc1	-1.4	5.3	-6.7
O=C1CNC[C@@H]2[C@H](c3ccc(C#CC4CCCCC4)cc3)[C@@H](CO)N12	1.5	-8.3	9.8

Results (from the top)
SMILES	DUX4 inh	DUX4 inh difference	DUX4 inh control
Cc1ccccc1-c1ccc([C@@H]2[C@@H](CO)N3C(=O)CN(S(C)(=O)=O)C[C@@H]23)cc1	7.0	2.9	4.0
CCCNC(=O)N1[C@H](CO)[C@H](c2ccccc2)[C@H]1CNC(=O)C1CC1	-0.4	-0.9	0.5
O=C(C[C@H]1C[C@@H]2c3cc(NC(=O)c4ccc5c(c4)OCO5)ccc3O[C@@H]2[C@H](CO)O1)NCCN1CCCCC1	1.7	-1.9	3.6
COc1ccc2c3c(n(C)c2c1)[C@H](CO)N(C(C)=O)CC31CN(C(=O)NC(C)C)C1	13.0	4.3	8.7
CCN1[C@@H]2c3ccc(-c4ccccc4F)c(=O)n3C[C@H]1[C@H](CO)[C@H]2C(=O)NCc1ccc(F)cc1	-1.4	5.3	-6.7
O=C1CNC[C@@H]2[C@H](c3ccc(C#CC4CCCCC4)cc3)[C@@H](CO)N12	1.5	-8.3	9.8
C[C@@H](NC(=O)[C@H]1[C@H](CO)[C@H]2Cn3c(cccc3=O)[C@@H]1N2CCC(F)(F)F)c1ccccc1	-2.1	-4.0	1.9
O=C(N[C@H]1CC[C@@H](CC(=O)N2CCCCC2)O[C@H]1CO)c1ccccn1	0.8	-2.3	3.1
COCCNC(=O)C[C@@H]1CC[C@H]2[C@@H](COC[C@H](O)CN2S(=O)(=O)c2ccccc2F)O1	3.0	-0.3	3.3
CN1c2ccc(Br)cc2[C@@H]2[C@@H](CCN2C(=O)Nc2ccc(F)cc2)[C@H]1CO	4.7	6.2	-1.5
CN1CCCCN2[C@H](C1)[C@H](c1ccc(-c3cccnc3)cc1)[C@@H]2CO	8.5	16.7	-8.2
COc1ccc2c3c(n(C)c2c1)[C@H](CO)N(Cc1ccccc1)CC31CCN(S(=O)(=O)c2ccc(C)cc2)CC1	u	x	x
CN1c2ccc(Br)cc2[C@@H]2[C@@H](CCN2C(=O)C2CCOCC2)[C@H]1CO	12.7	-3.6	16.2
COc1ccc(C[C@@H]2CCn3nncc3COC[C@H](c3ccccc3)NC2=O)cc1	1.7	-2.3	4.0
CN1CCN(C(=O)C[C@H]2CC[C@@H](NC(=O)c3ccc4c(c3)OCO4)[C@@H](CO)O2)CC1	0.4	-4.5	4.9
CO[C@@H]1CN(C)C(=O)c2cc(NC(=O)C3CCCCC3)ccc2OC[C@H](C)N(C)C[C@@H]1C	-0.2	0.5	-0.7
N#C[C@H]1[C@H](c2ccc(C#Cc3cccc(F)c3)cc2)[C@@H](CO)N1C(=O)C1CCOCC1	3.5	0.4	3.1
O=C(N[C@@H]1CC[C@@H](CCNS(=O)(=O)c2ccccc2Cl)O[C@@H]1CO)c1ccc(F)cc1	-4.6	-7.0	2.4
C[C@@H]1CN([C@@H](C)CO)C(=O)c2c(c3ccccc3n2C)-c2ccccc2CO[C@@H]1CN(C)CC1CCCCC1	u	x	x
C[C@@H]1CN([C@H](C)CO)C(=O)c2cc(-c3cccnc3)cnc2O[C@H]1CN(C)C(=O)c1ccccc1F	1.1	2.3	-1.2
COCC(=O)Nc1ccc2c(c1)C(=O)N(C)C[C@H](OC)[C@H](C)CN(CC1CCCCC1)[C@H](C)CO2	5.7	2.3	3.4
CCC(=O)N1CC2(C1)[C@H](c1ccc(-c3ccc(F)cc3)cc1)[C@H](CO)N2C(C)=O	7.5	11.0	-3.5
O=C(C1CC1)N1CC2(C1)[C@@H](c1ccccc1)[C@@H](CO)N2S(=O)(=O)c1ccccc1	1.0	-3.4	4.3
O=C(Nc1ccc2c(c1)OCO2)N1C[C@@H]2N[C@H](C1)C2c1ccc(C=Cc2ccccc2)cc1 (some centres not stated)	u	x	x
O=C(C[C@@H]1CC[C@@H](NC(=O)CN2CCOCC2)[C@@H](CO)O1)NC1CCC1	4.9	2.1	2.7
SMILES	DUX4 inh	DUX4 inh difference	DUX4 inh control
O=C(Nc1ccccc1F)N1CC(=O)N2[C@H](C1)[C@H](c1ccc(-c3cccnc3)cc1)[C@@H]2CO	11.1	6.9	4.1
Cc1ccc(S(=O)(=O)N2CC[C@H]3[C@@H](CO)N(C)c4ccc(-c5ccccc5F)cc4[C@H]32)cc1	u	x	x
Cc1ccc(S(=O)(=O)Nc2ccc3c(c2)C(=O)N([C@H](C)CO)C[C@H](C)[C@H](CN(C)Cc2ccc4c(c2)OCO4)OCCCC[C@@H](C)O3)cc1	u	x	x
O=C(Nc1cc(F)ccc1F)N1C[C@@H]2[C@H](c3ccccc31)[C@H](CO)N2CC1CCCC1	u	x	x
COc1ccccc1CNC(=O)C[C@@H]1CC[C@@H]2[C@H](COC[C@H](O)CN2Cc2ccc3c(c2)OCO3)O1	-4.4	2.0	-6.4
Cc1noc(C)c1NC(=O)Nc1ccc2c(c1)C(=O)N([C@@H](C)CO)C[C@H](C)[C@@H](CN(C)S(=O)(=O)c1ccc(F)cc1)O2	-0.7	1.0	-1.7
COC(=O)C[C@H]1CC[C@H]2[C@H](COc3ccc(NC(=O)c4cscn4)cc3C(=O)N2C)O1	1.3	3.6	-2.3
CO[C@H](CN(C)C(=O)Nc1ccc(Cl)cc1)[C@H](C)CN(Cc1ccccc1Cl)[C@H](C)CO	-5.4	-7.3	1.8
CNC[C@H]1OCCCC[C@H](C)Oc2ccc(NS(=O)(=O)c3cccs3)cc2C(=O)N([C@@H](C)CO)C[C@@H]1C	-3.4	-3.4	0.0
C[C@H]1CN([C@@H](C)CO)C(=O)c2cccc(NC(=O)Nc3ccc(F)cc3)c2O[C@H]1CN(C)S(=O)(=O)c1ccc(Cl)cc1	-1.5	-2.7	1.2
CN1c2ccc(C3=CCCCC3)cc2[C@@H]2[C@@H](CCN2S(=O)(=O)c2ccccc2)[C@@H]1CO	2.9	-3.8	6.8
O=C(NC1CCCC1)[C@@H]1[C@@H](CO)[C@@H]2Cn3c(cccc3=O)[C@H]1N2C(=O)CC1CC1	3.6	4.5	-0.9
COc1ccccc1-c1ccc([C@H]2[C@@H](CO)N3CCCCN(S(=O)(=O)c4cn(C)cn4)C[C@@H]23)cc1	14.2	10.3	3.9
CC(C)NC(=O)Nc1ccc2c(c1)C(=O)N(C)[C@@H]1CC[C@H](CC(=O)NCC3CCCCC3)O[C@H]1CO2	1.6	-0.7	2.3
COc1ccc(S(=O)(=O)N(C)C[C@@H]2Oc3ccc(NC(=O)Nc4ccc(C(F)(F)F)cc4)cc3C(=O)N([C@H](C)CO)C[C@H]2C)cc1	1.2	-2.3	3.5
O=C(O)C[C@H]1CC[C@@H](NC(=O)CCN2CCCCC2)[C@@H](CO)O1	-9.2	-9.2	0.0
COc1ccc2c3c([nH]c2c1)[C@H](CO)N(Cc1cc(F)ccc1F)CC31CCN(C(C)=O)CC1	u	x	x
CN1[C@@H]2c3ccc(-c4cccnc4)c(=O)n3C[C@@H]2[C@@H](CO)[C@@H]1C(=O)NCC1CCCCC1	-3.0	0.0	-2.9
CNC[C@H]1OCCCC[C@H](C)Oc2ccc(NS(=O)(=O)c3ccc(F)cc3)cc2C(=O)N([C@@H](C)CO)C[C@H]1C	1.2	-0.5	1.8
C[C@@H]1CCCCO[C@H](CN(C)S(=O)(=O)c2ccccc2)[C@H](C)CN([C@@H](C)CO)C(=O)c2cc(NC(=O)CCC(F)(F)F)ccc2O1	2.6	0.9	1.7
CCCN1C[C@H](C)[C@H](OC)CN(C)C(=O)c2cc(NC(=O)Nc3cccc(F)c3)ccc2OC[C@@H]1C	-3.6	-1.4	-2.2
CNC(=O)C[C@H]1CC[C@@H]2[C@@H](COc3ccc(NC(=O)c4cnccn4)cc3C(=O)N2C)O1	-4.0	-1.1	-3.0
CCCNC(=O)[C@H]1N[C@H]2c3ccc(-c4cccc(F)c4)c(=O)n3C[C@H]2[C@@H]1CO	4.1	8.0	-3.8
C[C@H]1CN([C@@H](C)CO)C(=O)CCCn2nncc2CO[C@@H]1CN(C)Cc1ccc(C(F)(F)F)cc1	-3.6	-8.9	5.3
COCC(=O)Nc1ccc2c(c1)[C@@H]1C[C@H](CC(=O)NC3CCCC3)O[C@@H](CO)[C@@H]1O2	6.1	0.9	5.2
SMILES	DUX4 inh	DUX4 inh difference	DUX4 inh control
CCCNC(=O)N1[C@H](C#N)[C@H](c2ccc(-c3cccc(OC)c3)cc2)[C@H]1CO	1.1	2.3	-1.1
C[C@@H]1CN([C@@H](C)CO)C(=O)CCCn2cc(nn2)CO[C@@H]1CN(C)C(=O)Cc1ccccc1	4.5	1.4	3.1
CC(C)(O)C#Cc1ccc([C@@H]2[C@@H](CO)N3CCCCN(Cc4ccccc4F)C[C@@H]23)cc1	15.9	12.1	3.7
C[C@H]1CN([C@@H](C)CO)C(=O)Cc2cc(NC(=O)Cc3cn(C)c4ccccc34)ccc2O[C@@H]1CN(C)Cc1ccc(C(F)(F)F)cc1	-0.8	-5.3	4.5
O=C(C[C@H]1CC[C@H]2[C@@H](COC[C@@H](O)CN2C(=O)Nc2ccc(F)cc2)O1)NC1CCC1	8.7	-2.5	11.2
CNC(=O)C[C@H]1CC[C@H]2[C@H](COc3ccc(NC(=O)C4CC4)cc3C(=O)N2C)O1	1.3	2.1	-0.7
CN1CCCCN2[C@@H](CO)[C@H](c3ccc(-c4ccccc4)cc3)[C@@H]2C1	12.1	11.5	0.6
O=C(c1ccccn1)N1CC[C@@H]2[C@H](CO)Nc3ccc(-c4cccc(F)c4)cc3[C@@H]21	u	x	x
CCC(=O)Nc1ccc2c(c1)C(=O)N(C)C[C@H](OC)[C@@H](C)CN(C(=O)c1cnccn1)[C@H](C)CO2	2.1	0.5	1.6
C[C@@H]1CCCCO[C@H](CN(C)Cc2ccc(Cl)c(Cl)c2)[C@@H](C)CN([C@H](C)CO)C(=O)c2cc(NC(=O)c3ccncc3)ccc2O1	-2.3	-0.1	-2.1
COC(=O)C[C@@H]1C=C[C@@H](N)[C@H](CO)O1	2.5	2.7	-0.2
O=C(Nc1nccs1)[C@H]1[C@H](CO)[C@H]2Cn3c(ccc(-c4cccnc4)c3=O)[C@H]2N1CC1CC1	-3.0	-6.6	3.6
C[C@H](CO)N1C[C@H](C)[C@@H](CN(C)S(=O)(=O)c2cn(C)cn2)OCCCC[C@H](C)Oc2ccc(NS(=O)(=O)c3cccs3)cc2C1=O	-2.5	-2.1	-0.4
CC(C)CC#Cc1cnc2c(c1)C(=O)N([C@H](C)CO)C[C@H](C)[C@H](CN(C)C(=O)c1cccnc1)O2	-0.5	-1.5	1.0
CO[C@H]1CN(C)C(=O)c2ccc(NC(=O)C3CC3)cc2OC[C@H](C)N(C(=O)c2cccnc2)C[C@H]1C	-0.3	-2.8	2.5
C[C@@H]1CN([C@@H](C)CO)C(=O)c2cc(NC(=O)c3ccccc3)ccc2O[C@@H](C)CCCCO[C@@H]1CN(C)Cc1ccc(C(F)(F)F)cc1	-0.1	-4.9	4.8
CC(=O)N1Cc2cc(C(=O)NCC(F)(F)F)nc(-c3cccc(-c4cc5ccccc5o4)c3)c2[C@H]1CCO	-0.2	-0.4	0.2
CC(=O)N1CC(=O)N2[C@H](C1)[C@H](c1ccc(C#CC(C)C)cc1)[C@@H]2CO	11.3	7.5	3.8
C/C=C/c1cnc2c(c1)C(=O)N([C@H](C)CO)C[C@H](C)[C@H](CN(C)C(=O)Nc1cccc(OC)c1)O2	-3.2	-2.2	-0.9
C[C@H](CO)N1C[C@H](C)[C@H](CN(C)S(=O)(=O)c2ccccc2F)OCc2cn(nn2)CCCC1=O	-1.3	-1.2	-0.1
CCCN1[C@@H]2c3ccc(C4=CCCCC4)c(=O)n3C[C@H]1[C@H](CO)[C@H]2C(=O)Nc1ccccc1	-1.7	-16.9	15.2
C/C=C/c1cnc2c(c1)C(=O)N([C@@H](C)CO)C[C@@H](C)[C@H](CN(C)S(=O)(=O)c1cn(C)cn1)O2	-4.8	-1.4	-3.4
N#C[C@H]1[C@H](c2ccc(-c3cncnc3)cc2)[C@@H](CO)N1C(=O)C1CCOCC1	-0.7	-3.5	2.8
COCC(=O)Nc1ccc2c(c1)[C@H]1C[C@@H](CC(=O)NC3CCCC3)O[C@H](CO)[C@H]1O2	0.8	-8.3	9.2
C[C@H](C(=O)N(C)C[C@H]1OCc2ccccc2-c2c(n(C)c3ccccc23)C(=O)N([C@H](C)CO)C[C@@H]1C)c1ccccc1	-6.6	-3.8	-2.8
C[C@H]1CCCCO[C@H](CN(C)C(=O)CCC(F)(F)F)[C@@H](C)CN([C@@H](C)CO)C(=O)c2cc(NS(=O)(=O)c3cccs3)ccc2O1	3.2	-1.4	4.6
CCC(=O)N1CC2(C1)[C@@H](c1ccc(-c3ccc(C#N)cc3)cc1)[C@H](CO)N2C(C)=O	10.1	11.4	-1.2
CCCN1[C@H](C(=O)NCCOC)[C@@H](CO)[C@@H]2Cn3c(ccc(-c4ccc(C(=O)N(C)C)cc4)c3=O)[C@@H]21	6.0	6.2	-0.2
